# Compound activity from PubChem.
# NS1 function inh – qHTS Assay for Inhibitors of Influenza NS1 Protein Function; S. cerevisiae slowed by influenza A NS1, growth recovery by OD600; Potency, µM (highest dose often 46.1 µM), for the others: top-dose activity, positive = more growth; actives 0.4% (n = 270,000); AID 2326, 2010; also: actives are rising curves; nearly all actives have a fitted effect of over 50% in size
#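 A cell-based growth assay was used: compounds that relieve NS1-induced slow growth of budding yeast raise OD600. Assay medium was yeast nitrogen base with ammonium sulphate and -URA supplement, pH 6.0, with 2% galactose.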
# SARS PLP yeast – qHTS of Yeast-based Assay for SARS-CoV PLP. actives 0.19% (n = 330,000). Potency, µM (top dose mostly 32.9 µM), for inactives: at the highest dose activity, positive = growth rescue. S. cerevisiae expressing SARS-CoV PLpro, growth rescue; control for the full effect not named in the record; also: 0% is about no effect; nearly all actives have a fitted effect of over 55% in size; growth read by luminescence after 48 h
# Cruzain noTriton – qHTS Assay for Promiscuous and Specific Inhibitors of Cruzain (without detergent); Potency, µM, for the others: max response, negative = inhibition, actives largely listed as inhibitors; purified cruzain, Z-FR-AMC fluorescence, no detergent; actives 2.3% (n = 200,000); Cruzipain (Trypanosoma cruzi), P25779; active = well fitted curve in the direction sought with a large enough effect; inconclusive = small, poorly fitted or top-dose-only effect, or another doubt; inactive = no such curve, though single readings can be large; an effect the other way counts as inactive or inconclusive;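 also: plate controls were enzyme without inhibitor for no effect and buffer without enzyme for full effect; nearly all actives have a fitted effect of over 40% in size; top concentration of the series not given in the record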
# Target sequence (P25779 123-467 limits assumed): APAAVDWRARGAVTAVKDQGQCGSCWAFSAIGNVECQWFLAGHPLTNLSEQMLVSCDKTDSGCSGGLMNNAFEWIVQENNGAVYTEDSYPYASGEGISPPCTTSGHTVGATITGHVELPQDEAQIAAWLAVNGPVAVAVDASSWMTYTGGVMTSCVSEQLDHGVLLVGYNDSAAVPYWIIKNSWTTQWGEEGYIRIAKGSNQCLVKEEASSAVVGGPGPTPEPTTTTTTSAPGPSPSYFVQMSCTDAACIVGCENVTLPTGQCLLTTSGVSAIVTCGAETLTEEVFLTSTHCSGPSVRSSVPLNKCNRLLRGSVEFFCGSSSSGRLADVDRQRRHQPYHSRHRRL
#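 Detergent-free condition (0.00005% Triton X-100) in acetate buffer pH 5.5 with DTT. 1.5 nM enzyme and compound were pre-mixed 15 min, then 2 uM Z-FR-AMC substrate added; reaction progress from fluorescence change between first and third reads (60 s).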
# RE007 growth inh – qHTS Assay for Inhibitors of the HIV-1 protein Vpr; S. pombe RE007 Vpr strain, BacTiter-Glo ATP luminescence, 24 h; control for the full effect not named in the record; Potency, µM (highest dose often 92.2 µM), for inactives: top-dose activity change, negative = less growth; actives 0.21% (n = 360,000); AID 651644, 2012; active = well fitted falling curve with a large enough effect; inconclusive = small, poorly fitted or top-dose-only effect; inactive = no such curve, though single readings can be large or run the other way;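 also: % is scaled to controls: 0 for no effect and ±100 for the full control effect; nearly all actives have a fitted effect of over 50% in size; the assay follows cell death caused by Vpr and the record does not say whether a fall means rescue or toxicity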
#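 Fission yeast strain RE007, carrying one chromosomally integrated HIV-1 vpr copy, was seeded at OD 0.01 in PMG+AL medium with 23 nL pinned compound. After 24 h at 30 °C and 99% humidity, viability was read by BacTiter-Glo luminescence.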
# Cruzain Triton – qHTS Assay for Promiscuous and Specific Inhibitors of Cruzain (with detergent). Cruzipain (Trypanosoma cruzi), P25779. purified cruzain, Z-FR-AMC fluorescence, 0.01% Triton. Potency, µM, for inactives: max response, negative = inhibition, most hits filed as inhibitors. actives 0.43% (n = 200,000). AID 1478, 2009; active = well fitted curve in the direction sought with a large enough effect; inconclusive = small, poorly fitted or top-dose-only effect, or another doubt; inactive = no such curve, though single readings can be large; an effect the other way counts as inactive or inconclusive;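 also: plate controls were neutral wells for no effect and buffer without enzyme for full effect; nearly all actives have a fitted effect of over 40% in size; top concentration of the series not given in the record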
#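 In this qHTS format, compounds are incubated with 1.5 nM cruzain for 15 min at room temperature before 2 uM Z-FR-AMC is added. Release of AMC is followed at 360/450 nm, and progress is taken as the 60 s fluorescence difference.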
# StopGo reporter – High Throughput Screening for Foot and Mouth Disease Virus Antivirals; human cells with a luciferase reporter of 2A StopGo recoding; control for the full effect not named in the record; actives 1.2% (n = 410,000); AID 1159524, 2015; Potency, µM (doses to about 57.9 µM), for the others: top-dose signal change, negative = less light; active = well fitted falling curve with a large enough effect; inconclusive = small, poorly fitted or top-dose-only effect; inactive = no such curve, though single readings can be large or run the other way; tested in HEK293T cells; also: % is scaled to controls: 0 for no effect and ±100 for the full control effect; nearly all actives have a fitted effect of over 45% in size; luciferase light after 4 h
# Lassa entry inh – qHTS for Inhibitors of binding or entry into cells for Lassa Virus; Lassa virus pseudotype entry inhibition, cell reporter; control for the full effect not named in the record; Potency, µM (series often up to 37.9 µM), for inactives: at the highest dose activity change, negative = inhibition, usual class: inhibitors; actives 1.2% (n = 300,000); AID 540256, 2011; active means well fitted inhibition curve with a large enough effect; inconclusive means small, poorly fitted or top-dose-only effect, or effect the other way; inactive means flat fitted curve, though single readings scatter; tested in HEK293 cells; also: % is scaled to controls: 0 for no effect and ±100 for the full control effect; nearly all actives have a fitted effect of over 50% in size; luciferase read-out
# Marburg entry inh – qHTS for inhibitors of binding or entry into cells for Marburg Virus. Marburg virus pseudotyped entry inhibition, cell reporter; control for the full effect not named in the record; about a third of the inactives were read at about 46 µM. Potency, µM (top dose mostly 37.8 µM), without a hit: top-dose activity change, negative = inhibition, usual class: inhibitors. actives 1.8% (n = 300,000); active = well fitted inhibition curve with a large enough effect; inconclusive = small, poorly fitted or top-dose-only effect, or effect the other way; inactive = flat fitted curve, though single readings scatter; tested in HEK293 cells; about a fifth of its hits are not listed in these tables; also: % is scaled to controls: 0 for no effect and ±100 for the full control effect; luciferase read-out
# The depositor's hits bear a star; ? = inconclusive; . = not tested or not shown; & = joins results of further samples; [ ] = dose if it differs, or a comment. Unless noted, calls follow the shape of the dose curve; as a rule, active means well fitted rising curve with a large enough effect; inconclusive means small, poorly fitted or top-dose-only effect; inactive means no such curve, though single readings can be large or run the other way. Potency is read from the fitted curve at half-maximal effect.
Compound	NS1 function inh	SARS PLP yeast	Cruzain noTriton	RE007 growth inh	Cruzain Triton	StopGo reporter	Lassa entry inh	Marburg entry inh
COc1ccc(CCNCC(=O)Nc2ccc(C(=O)N3CCCCC3)cc2)cc1	-4.2%	0.1%	.	6.4%	.	-1.1%	3.5%	-20.3%[46.1 µM]
O=C(CCCOc1ccc(Cl)cc1)N1CCCCCC1	-21.1%	-22.8%	9.1%	-9.7%	0.0%	23.7%	0.0%	?
NC1=NC(=Nc2ccccc2)c2ccccc21	-38.7%	-3.5%	5.6%	-17.2%	-3.9%	?	13µM*	.
Cc1cc(C)nc(SC/C=C/c2ccccc2)n1	-45.7%	-1.1%	.	-4.7%	.	40.5%[activator]	.	.
COc1nc(NCCC2=CCCCC2)nc(OC)n1	-32.6%	-9.1%	0.0%	17.2%	-5.0%	35.9%[activator]	0.4%	1.2%
O=C(NCCOc1ccccc1)C1CCC(=O)N(C2CCCCCC2)C1 (centres undefined)	-12.4%	0.4%	.	-6.8%	.	3.6%	?	9.0%
Fc1ccc(Cn2nnnc2C(c2cccs2)N2CCCCCC2)cc1 (centres undefined)	-49.0%	-6.4%	-0.1%	2.1%	0.0%	.	-24.2%	?
S=C(Nc1ccc2nsnc2c1)N1CCCCCC1	-5.2%	-1.0%	.	-15.1%	.	40.9%[activator]	18.7%[46.1 µM]	-0.6%[46.1 µM]
CC(CN1CCCCC1)C(=O)NNC(=O)C12CC3CC(CC(C3)C1)C2 (centres undefined)	.	1.8%	.	-7.6%	.	-10.9%	21.5%[46.1 µM]	-20.0%[46.1 µM]
CC(C)NC(=O)C1CCN(S(=O)(=O)c2ccc(N3CCCC3=O)cc2)CC1	5.4%	13.1%	.	2.8%	.	-19.6%	.	.
CNC(=S)N(Cc1cc2cc(C)ccc2n2nnnc12)CC(C)(C)CN(C)C	10.1%	2.5%	.	1.2%	.	-1.7%	.	.
O=C(/C=C/c1ccco1)Nc1ccccc1N1CCOCC1	-23.9%	-6.1%	-9.6%	-21.9%	-10.0%	-6.9%	5.2%	-0.7%
Cc1ccccc1Nc1c(-c2ccco2)nc2c(C)cccn12	.	.	-2.2%	.	-6.9%	-14.2%	-0.1%[46.1 µM]	-4.6%[46.1 µM]
S=c1[nH]nc(-c2ccncc2)n1Cc1ccccc1	9.9%	1.3%	2.7%	6.4%	2.8%	.	-0.1%	-10.7%
CC(=O)Nc1cccc(Oc2ccc([N+](=O)[O-])cc2Cl)c1	.	-3.3%	.	5.4%	.	?	-1.8%[46.1 µM]	?
CC1CCN(S(=O)(=O)c2ccc(Oc3ccc([N+](=O)[O-])cc3)cc2)CC1	28.4%	-5.8%	-7.7%	6.5%	-2.2%	?	?	-20.6%
CC(C)CN=c1cc(-c2ccccc2)oc2ccc(Cl)cc12	-24.1%	-6.1%	2.8%	-14.1%	-4.8%	10.9%	?	17.8µM*
O=C(Cn1cnc2ccccc2c1=O)N1CCOCC1	0.0%	1.8%	1.6%	14.4%	8.2%	-16.2%	-0.3%	?
COc1cccc(Nc2nc(N)nc(CCl)n2)c1	0.5%	-0.6%	.	3.2%	.	15.7%	?	?
COC(=O)c1c(/N=C/N(C)C)sc2c1CCN(c1ncc(C(F)(F)F)cc1Cl)C2	?	-13.2%	?	?	-9.8%	-4.2%	-16.7%	-4.6%
Cc1sc2nc(CN3CCCCC3)nc(Nc3ccc4c(c3)OCCO4)c2c1C	3.2%	2.0%	.	2.1%	.	-8.7%	-14.4%	-0.3%[46.1 µM]
COc1ccc(CCNC(=O)/C=C/c2ccc(OC)c(S(=O)(=O)N3CCOCC3)c2)cc1	4.2%	-3.2%	.	6.5%	.	3.3%	.	.
Cc1nc2sc(-c3ccccc3)nn2c(=O)c1Br	-22.8%	-8.4%	-6.5%	?	-3.3%	-12.8%	-0.1%	8.6%
O=C(C[n+]1cc(-c2ccccc2)n2c1CCCCC2)c1ccc(Br)cc1	-0.9%	-0.3%	.	-5.5%	.	?	-12.2%	-25.2%
Cc1c(Cc2ccccc2)c(NCCCO)n2c(nc3ccccc32)c1C#N	-15.5%	-2.1%	.	2.9%	.	?	.	.
COC(=O)c1ccc(CN(Cc2ccc(OC)c(OC)c2)S(=O)(=O)c2ccc(F)c(C(=O)Nc3cc(C)ccc3C)c2)cc1	.	.	23.5%	.	0.6%	-2.5%	14.9%[46.1 µM]	.
CSc1ccccc1C(=O)Nc1nc2ccccc2c(=O)[nH]1	-34.6%	11.2%	.	?	.	28.1%	?	?
CCCc1c(C(=O)O)cnn1-c1ccc(Cl)cc1	-5.6%	0.0%	.	14.1%	.	1.7%	5.8%[46.1 µM]	11.3%[46.1 µM]
CCCn1c(SCC(=O)Nc2nccs2)nnc1-c1cccnc1	-2.7%	-0.9%	-5.8%	0.4%	-4.9%	10.4%	26.3%	?
Cn1ccnc1SCC(=O)Nc1sccc1C#N	-0.2%	-7.0%	0.6%	4.0%	1.7%	-14.0%	1.3%	21.3%
O=C(NC1CCS(=O)(=O)C1)c1ccc(-c2ccc(Br)cc2)o1 (centres undefined)	-10.0%	-2.0%	11.8%	-9.3%	-4.4%	.	-11.1%	7.1%
COC(=O)c1c(-c2cccs2)csc1NC(=O)c1cc(OC)cc(OC)c1	.	.	-5.0%	.	-5.9%	0.0%	-12.7%[46.1 µM]	?
COc1ccc(NC(=O)c2c(NCc3cccc(OC)c3)sc3c2CCC3)cc1	.	.	-7.2%	.	-1.1%	-7.3%	16.4%[46.1 µM]	.
Cc1cc(NC(=O)CN2CCCCCCC2)no1	0.0%	2.0%	-8.9%	10.8%	2.8%	.	?	-14.3%
CN(Cc1ccccc1)C1CC(=O)N(c2ccc(C(=O)O)cc2)C1=O (centres undefined)	5.7%	0.6%	7.5%	0.7%	-0.1%	-19.7%	-16.5%	12.3%
Cc1ccccc1S(=O)(=O)Cc1ccc(C(=O)NCCCN2CCCC(C)C2)o1 (centres undefined)	4.3%	8.7%	.	-13.6%	.	-12.2%	.	.
COc1ccc(C2NC(=O)N(C)C(C)=C2[N+](=O)[O-])cc1 (centres undefined)	1.1%	-0.6%	.	-8.1%	.	-4.7%	.	.
CCCCOc1ccccc1C(=O)NCCCCCC(=O)O	-4.3%	2.8%	-0.3%	-4.7%	2.4%	-9.2%	-8.1%	6.4%&6.4%[46.1 µM]
O=C(CN(C(=O)CCC(=O)Nc1nccs1)c1cccc(F)c1)NCC1CCCO1 (centres undefined)	3.5%	5.0%	2.4%	10.8%	8.3%	-3.8%	-6.7%	5.8%
COc1ccc(C2C(C(=O)C(C)(C)C)=C(O)C(=O)N2Cc2ccccc2)cc1 (centres undefined)	-10.9%	?	-6.5%	4.8%	-7.5%	50.0%[activator]	-0.8%	17.9%
Cc1ccc(CNS(=O)(=O)NCc2ccccc2F)cc1	.	-5.8%	.	14.5%	.	21.8%	-17.6%[46.1 µM]	2.4%[46.1 µM]
O=C(OCC(=O)N1CCCC1=O)C1CCN(S(=O)(=O)c2c(Cl)cccc2Cl)CC1	-12.4%	1.4%	.	13.7%	.	6.0%	17.5%	2.1%
O=C(Nc1ccc(Cl)cc1)OCc1ccccn1	-11.3%	-14.5%	-12.4%	-0.3%	-1.8%	9.4%	-28.6%	-18.4%
CC(=O)N1c2ccc(S(=O)(=O)NCCC(=O)Nc3ccc(C)cn3)cc2CC1C (centres undefined)	5.5%	-13.1%	.	-16.5%	.	-19.7%	.	.
COCC(=O)Nc1ccc(N2CCN(c3ccccc3)CC2)c(F)c1	0.5%	-3.4%	.	-2.4%	.	8.6%	-1.5%[46.1 µM]	?
CC(NC(=O)Cn1c(=O)oc2cc(S(=O)(=O)N3CCCC3)ccc21)c1ccccc1 (centres undefined)	3.2%	-15.4%	?	-16.4%	1.1%	0.0%	.	2.3%
Cc1cc(C(F)(F)F)nn1CC(=O)Nc1ccc2c(c1)OCO2	2.4%	-0.5%	.	10.9%	.	-5.7%	24.2%[46.1 µM]	7.9%[46.1 µM]
Cc1ccc(N2CCN(c3cc(C)nc4c(-c5ccc(Cl)cc5)c(C)nn34)CC2C)cc1 (centres undefined)	.	.	-9.0%	.	1.1%	-6.5%	17.3%[46.1 µM]	.
COc1ccc(C(=O)Nc2cnc3sc(C)nn3c2=O)cc1	.	1.7%	.	-11.6%	.	7.7%	20.0%	-2.9%
O=[N+]([O-])c1ccc(Cl)c(S(=O)(=O)NCC2CCCO2)c1 (centres undefined)	11.1%	6.8%	-0.5%	0.0%	2.1%	8.9%	?	?
Cc1ccccc1Cn1c(C)cc(C)c(C#N)c1=O	.	-0.9%	.	19.5%	.	-4.0%	3.5%	?
Cc1ccccc1NC(=O)CSc1cn(CC(=O)N(C(C)C)C(C)C)c2ccccc12	.	.	-4.0%	.	-0.6%	-14.3%	1.3%[46.1 µM]	.
O=C(c1ccc(C(F)(F)F)cc1)C1CCCN(C2CCSCC2)C1 (centres undefined)	-6.8%	0.5%	.	6.0%	.	-14.1%	-10.1%	?
CCOc1ccccc1C(=O)Nc1ccc(S(=O)(=O)Nc2cc(OC)nc(OC)n2)cc1	-2.8%	-3.3%	.	-18.8%	.	8.7%	-2.1%	0.5%
CC(C)(C)OC(=O)N1CCCN(C(=O)Nc2ccccc2)CC1	1.8%	0.0%	.	29.3%	.	-18.5%	19.6%	19.4%[46.1 µM]
CCOC(=O)N1CCN(C(=O)c2cc(COc3ccc4ncccc4c3)on2)CC1	-7.5%	0.2%	.	-11.2%	.	?	-12.7%[46.1 µM]	?
Cc1[nH]c(=S)c(C#N)c(-c2ccccc2)c1C(=O)Nc1ccccc1	0.0%	-0.9%	.	14.9%	.	-11.7%	-15.4%	1.3%
COc1cc(/C=C2\SC(=S)N(CC(=O)O)C2=O)ccc1OS(=O)(=O)c1ccc(C)cc1	.	0.3%	.	23.9%	.	0.0%	?	-0.5%
